Source: PubChem (several laboratories)
PrP UTR inh: inhibition of PrP 5' UTR reporter expression; cell-based PrP 5' UTR mRNA reporter, plate reader; inhibition, % (concentration not given with the values); hit rate 0.35% among 340,000; AID 488862, 2010;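 active means every replicate at 50% or more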;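 further: 0 = median of the neutral control wells; tested in H4 reporter cells; numbers are from one replicate; inactives centre near -14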
Sa RN4220 lethal: growth inhibition of S. aureus RN4220, primary screen, OD600 | 16 h | hit rate 0.33% among 330,000 | inhibition, % (concentration not given with the values) | AID 1259311, 2017;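 active means z-score of -3 or lower and OD600 up to 0.18 on both plates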;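 further: plate controls were untreated cells for no effect and reference antibiotic for full effect; stock transfer was 100 nL into about 80 µL; one replicate is shown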
BJeLR lethal: MLPCN primary cell-based screen for lethality selective to Ras in HRASV12 cells | inhibition, % (concentration not given with the values) | BJeLR (HRASV12) viability, CellTiter-Glo ATP luminescence, 48 h; reference of the scale not given here | AID 1554, 2009 | hit rate 0.17% among 300,000;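 active means replicate mean above 50%; inconclusive means above 50% but judged a plate artefact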;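 further: 50 nL library stock added to about 25 µL; numbers are from one replicate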
Bead autofluor: flagged as autofluorescent in microsphere protease counterscreen; compound autofluorescence counterscreen, microsphere flow cytometry; active compounds read high; fluorescence intensity (concentration not given with the values); hit rate 3.1% among 360,000;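 active means at least 3 SD above the mean of all compounds, about 16000 in these data; inconclusive means too few beads counted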;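 further: 100 nL of 1 mM stock went into each well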
Mtb hypoxia rep: PubChem AID 1159583; fluorescence inhibition, % (test concentration not listed); hit rate 0.1% among 300,000; M. tuberculosis hypoxia-regulated fluorescent reporter, fluorescence;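 active means 35 to 45% if threefold the growth effect, above 45% if 1.5-fold the growth effect; inactive means the rest, general growth blockers included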;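 further: wells of about 50 µL received 100 nL stock; 0% = vehicle wells and 100% = reference inhibitor wells; whole bacteria with a GFP reporter of the hypoxia response; strong numbers were not always called active; many hits fall short of the cut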
Sa ugtP lethal: growth inhibition of ugtP-null S. aureus, primary screen, RN4220 ugtP deletion, OD600; 16 h; some inactives read as strong as hits; growth inhibition, % (no concentration beside the values); hit rate 0.54% among 330,000; AID 1259309, 2017;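 active means z-score under -3 and OD600 up to 0.15 on both plates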;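 further: plate controls were untreated wells for no effect and antibiotic for full effect; wells of about 80 µL received 100 nL stock; the first replicate is given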
Mtb hypoxia rep growth: recorded beside Mtb hypoxia rep, whose call it bears; growth inhibition, %; measured here: M. tuberculosis growth (absorbance);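 0% = vehicle and 100% = reference antibiotic; read after six days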
* = called active by the depositor; ? = inconclusive; · = no result given.

SMILES	PrP UTR inh	Sa RN4220 lethal	BJeLR lethal	Bead autofluor	Mtb hypoxia rep	Mtb hypoxia rep growth	Sa ugtP lethal
CNC[C@H](CC1CCCCC1)NC[C@H](CO)NCC1(c2ccccc2)CC1	-17	·	6	3537	·	·	·
O=C(Nc1ccccc1Cl)N1CCCN(c2nc(-c3ccccc3)ns2)CC1	-9	5.2	3	4961	-1	11	-14
CCCn1c(C(C)Nc2nc(-c3cc(Cl)c(N)c(Cl)c3)cs2)nc2cc(Cl)c(N3CCCCC3)cc21 (configuration not stated)	-14	0.6	6	3561	0	9	-2
CC(C)(C)NC(=O)C1c2ccccc2Oc2ccccc21	-8	1.7	6	3889	5	-1	-3
COC(=O)c1cc(NS(=O)(=O)c2ccc(NC(C)=O)cc2)cc(C(=O)OC)c1	10	1.0	3	4180	-9	1	-1
CCCCc1ccc(NC(=S)NCc2cccc(OC)c2)cc1	4	5.1	4	2054	7	10	-12
CCc1ccccc1NC(=O)CSc1nc(C)c(C)o1	-17	1.2	3	5225	10	-1	-2
CCOc1cc(S(=O)(=O)Nc2ccncc2)ccc1F	-19	4.4	3	3921	-5	3	3
COc1cccc(COC(=O)C2CCN(S(=O)(=O)c3cccs3)CC2)c1OC	-12	5.7	-10	4469	7	7	18
O=C(CN1CCOCC1)NN=C1CCCCCCCCCCC1	-22	5.7	6	2437	9	2	3
Cc1ccc(C(=O)NC2CCCCC2)cc1S(=O)(=O)N1CCCC1	-8	2.1	-8	?	-6	14	-1
CN1CCN(Cc2oc(CO)cc(=O)c2O)CC1	-25	4.2	-6	8719	3	6	-3
CCOC(=O)C1=CNS(=O)(=O)NC1c1ccc2ccccc2c1 (configuration not stated)	-6	3.3	·	2940	-5	-2	-7
Cc1ccc(C(=O)N2CCN(C(=O)CN3CCCC3)C2)cc1	-1	4.3	2	3308	8	7	2
O=c1[nH]nc2c3ccccc3cnn12	-7	-13	1	3191	10	3	1
Cc1ccc(C)c(N2CCN(CCCNC(=O)Cn3cc4c(n3)CCC(C)C4)CC2)c1 (configuration not stated)	-29	6.0	1	6362	·	·	6
CCOC(=O)C=C1CN(Cc2ccc(OC)cc2)S(=O)(=O)c2ccccc21	·	-3.1	·	·	-1	-3	-3
CCCCN(C)CCCNC(=O)CCn1nc(-c2ccccc2)ccc1=O	-19	3.3	2	2214	2	3	18
CCCCC(=O)NC(NC(=O)CCCC)c1ccc(OCCC)c(OC)c1	-10	3.9	2	1955	13	4	11
CN(C)C1=NCC(Cc2ccccc2)N1CCc1cccc(F)c1 (configuration not stated)	·	5.2	·	·	5	6	-4
O=C(COC(=O)c1cccc(S(=O)(=O)N2CCc3ccccc32)c1)Nc1ncc(Cl)cc1Cl	-11	12	-3	2594	1	4	-2
Clc1ccc(CN2CCC(Cc3ccccc3)CC2)cc1	-1	-5.0	1	2048	10	7	11
C=CCNC(=O)CC(=O)N/N=C/c1ccccc1F	-37	·	10	9899	·	·	·
Cc1cc(OCC(=O)Nc2ccc(OCc3ccccc3)cc2)nc(C(C)C)n1	-26	-1.0	-15	6295	10	9	7
CCOC(=O)C1(C)/C(=N/Nc2cccc(Cl)c2)C(=O)C(=O)N1c1ccccc1 (configuration not stated)	2	-17	6	3228	21	-14	-18
(listing goes on)
SMILES	PrP UTR inh	Sa RN4220 lethal	BJeLR lethal	Bead autofluor	Mtb hypoxia rep	Mtb hypoxia rep growth	Sa ugtP lethal
COc1ccc(CCNC(=O)C(=O)NCC2CCCN2S(=O)(=O)c2ccc(OC)cc2)cc1 (configuration not stated)	-15	5.6	3	5827	2	4	7
O=P(c1ccccc1)(c1ccccc1)c1nc(-c2ccccc2)oc1N1CCOCC1	-2	0.2	0	4676	-1	4	2
CNC(=O)N(O)C1N(C)C(=O)N(Cc2ccccc2)C1(C)C (configuration not stated)	-9	1.8	7	9473	-10	5	-1
Cc1ccc(C=NNC(=O)c2nnn(-c3nonc3N)c2CN(C)c2ccccc2)s1	·	1.8	·	·	-3	-2	-6
COc1cccc(NC(=O)Cn2c3ccccc3c3nc4n(c(=O)c32)CCCS4)c1	-11	0.8	-8	·	7	-7	9
Cc1ccc(-c2nn(-c3ccccc3)cc2/C=C/C(=O)O)o1	-18	4.0	-2	3775	10	5	15
O=C(CCNC(=O)N1CC(=O)Nc2ccccc21)Nc1ccc(Cl)cc1	-22	6.4	-2	5168	5	2	17
C=CCNC(=S)NCc1ccc(CNC(=S)NCC=C)cc1	-7	11	-2	3425	3	8	5
CCC(C)(C)n1nnnc1CN1CCN(C(c2ccccc2)c2ccccc2)CC1	-1	4.3	-8	9993	-1	1	-5
Cc1ccc2occ(/C=N/NC(=O)c3ccccc3C)c(=O)c2c1	-7	·	2	6263	·	·	·
O=C(O)c1ccc2c3c(cccc13)C(=O)N(c1ccccc1)C2=O	-28	8.9	-2	2065	-7	6	2
Oc1cccc(C=NN(Cc2ccccc2)c2ccccc2)c1	·	54	·	·	6	0	-12
CCN(C(=O)COC(=O)CCOc1ccccc1)c1c(N)n(Cc2ccccc2)c(=O)[nH]c1=O	-17	6.5	·	·	5	-1	7
Cc1cc(C)c(C#N)c(N2CCN(Cc3ccccc3)CC2)n1	-35	8.0	-6	23816*	9	7	9
CCN([C@H](CO)C(C)C)S(=O)(=O)c1ccccc1Br	-3	4.3	·	3427	4	10	0
COc1cc2c(cc1OC)C(Cc1ccc(O)cc1)NCC2 (configuration not stated)	-24	9.8	-2	3916	-1	9	2
O=C(COn1nnc2ccc(Cl)cc21)NCc1ccccc1	-19	1.7	-3	2136	·	·	7
CCNc1nc(NC(C)CC)nc(Oc2ccc(=O)[nH]n2)n1 (configuration not stated)	-11	1.0	-13	8996	-2	14	-9
CCCCn1cnc2c(SCc3ccccc3F)nc(N)nc21	-24	1.5	·	3692	7	6	0
COc1ccc(C=NOCC(=O)N2CC3(C)CC2CC(C)(C)C3)cc1 (configuration not stated)	·	7.3	·	·	16	10	10
Cc1cccc(C(=O)N2CCCC(CCC(=O)N3CCN(c4ccccn4)CC3)C2)c1 (configuration not stated)	-22	7.5	4	4071	5	6	1
CSCCC(NS(=O)(=O)c1ccc(C)cc1)C(=O)NCC(C)(C)N1CCOCC1 (configuration not stated)	-26	7.9	·	8896	3	8	11
N#Cc1cccc(NC(=O)COC(=O)c2ccc[n+]([O-])c2)c1	-16	-0.8	·	4326	3	-3	-1
CNC(=O)COC(=O)c1ccccc1C(=O)c1ccc(Cl)c([N+](=O)[O-])c1	-24	-1.6	43	4718	1	11	7
CC(NC(=O)c1cccc(N2CCCC2=O)c1)c1ccc2c(c1)OCCO2 (configuration not stated)	-8	-3.1	-3	·	5	3	-6

The final 2 entries of the section before come first, to join the parts:
SMILES	PrP UTR inh	Sa RN4220 lethal	BJeLR lethal	Bead autofluor	Mtb hypoxia rep	Mtb hypoxia rep growth	Sa ugtP lethal
CNC(=O)COC(=O)c1ccccc1C(=O)c1ccc(Cl)c([N+](=O)[O-])c1	-24	-1.6	43	4718	1	11	7
CC(NC(=O)c1cccc(N2CCCC2=O)c1)c1ccc2c(c1)OCCO2 (configuration not stated)	-8	-3.1	-3	·	5	3	-6
Cc1nc(C(F)(F)F)nc(Nc2ccc(Br)cc2)c1C#N	-16	0.3	10	2854	12	3	8
CC1(C)NC(=O)N(CCOCCOc2ccc3ccccc3c2Br)C1=O	-9	3.0	2	21501*	-6	4	-3
COc1ccc(N2C(=O)c3ccccc3NC23CCC(C)CC3)cc1 (configuration not stated)	-68	1.2	0	22907*	3	-4	3
Cc1ccsc1C(=O)OCc1nnc(-c2ccccc2)o1	-62	5.7	·	6579	1	-2	5
Oc1cc(Cl)ccc1Oc1ccc(Cl)cc1Cl	-5	100*	-4	5141	·	·	100*
CCCC(=O)Nc1ccc2nc(SCC(=O)Nc3nccs3)sc2c1	-26	1.5	-5	3049	·	·	4
CCSC1=C(C#N)C(c2ccc(F)cc2)CC(=O)N1 (configuration not stated)	-14	7.1	·	4962	9	12	7
O=C(O)/C=C/C(=O)N1CCN(C(c2ccccc2)c2ccccc2)CC1	-16	10	-9	4776	8	-3	-3
COc1ccc(C(=O)NN=C(Cc2ncc[nH]2)c2ccccc2)cc1	·	7.0	·	·	-5	8	4
COc1ccc(NC(=O)COC(=O)c2cc(OC)c(OC)cc2NC(=O)c2ccco2)cc1OC	-10	7.5	2	21054*	5	5	-5
NC1=NC(c2cccc(Cl)c2)N(CCc2ccc(F)cc2)C(N)=N1 (configuration not stated)	-22	1.8	2	3114	4	-7	4
Nc1ccn(CC(=O)NC(CO)Cc2c[nH]c3ccccc23)c(=O)n1 (configuration not stated)	·	6.9	·	·	10	8	0
COc1cc(/C=N/O)c(Br)cc1OCC(=O)Nc1ccccc1C	-28	·	16	7977	·	·	·
COc1ccc(Nc2nc3ccccc3n3cnnc23)cc1	20	5.2	0	11296	-9	8	-18
S=C(NC1CCCCC1)N1CCN(c2ccccn2)CC1	0	0.1	-8	2622	-6	10	3
CCOc1cc(/C=C2/NC(=O)NC2=O)cc(Br)c1OCc1ccc(C(=O)O)cc1	-20	8.1	-1	2168	10	8	7
CCOc1ccc(N/C(SCc2cccc([N+](=O)[O-])c2)=C(/C#N)C(N)=O)cc1	-22	5.7	7	3889	-3	17	9
N#Cc1ccc(N2CCOCC2)nc1	-23	2.7	-6	6366	1	-5	3
CCOC(=O)NN=Cc1cn(Cc2ccc(F)cc2)c2ccccc12	·	1.9	·	·	-9	-3	-1
Cc1ccc(C2=C/C(=C/c3cccnc3)C(=O)O2)c(C)c1	-15	5.6	-8	2467	8	9	-4
O=C1c2ccccc2NC(c2ccc(-c3ccccc3F)o2)N1O (configuration not stated)	-35	7.6	·	4231	12	5	-32
CC1=C(C(=O)OCc2ccccc2)C(c2ccccc2Cl)NC(=O)N1CCCC(=O)O (configuration not stated)	-5	4.9	-16	4186	4	4	-5
CCCS(=O)(=O)N1CCCC(C(=O)Oc2ccc(Cl)cc2)C1 (configuration not stated)	-6	3.0	8	3829	13	3	7
O=C(Nc1ccc(OC(F)F)cc1)c1cc(S(=O)(=O)N2CCOCC2)ccc1F	0	-0.5	-6	6250	1	1	1
CCS(=O)(=O)n1nc(-c2ccc(Cl)cc2)nc1N	-16	2.2	-12	4669	10	5	0
Cn1c(=O)c2cc(S(=O)(=O)Nc3cccc(F)c3)ccc2n(C)c1=O	12	9.6	-5	2977	7	11	1
O=C(Nc1c2c(nn1-c1ccccc1)CS(=O)(=O)C2)c1ccc2c(c1)OCO2	-14	1.8	-21	5565	0	5	4

Entries listed so far containing fluorine, in the order listed:
SMILES	PrP UTR inh	Sa RN4220 lethal	BJeLR lethal	Bead autofluor	Mtb hypoxia rep	Mtb hypoxia rep growth	Sa ugtP lethal
CCOc1cc(S(=O)(=O)Nc2ccncc2)ccc1F	-19	4.4	3	3921	-5	3	3
CN(C)C1=NCC(Cc2ccccc2)N1CCc1cccc(F)c1 (configuration not stated)	·	5.2	·	·	5	6	-4
C=CCNC(=O)CC(=O)N/N=C/c1ccccc1F	-37	·	10	9899	·	·	·
CCCCn1cnc2c(SCc3ccccc3F)nc(N)nc21	-24	1.5	·	3692	7	6	0
Cc1nc(C(F)(F)F)nc(Nc2ccc(Br)cc2)c1C#N	-16	0.3	10	2854	12	3	8
CCSC1=C(C#N)C(c2ccc(F)cc2)CC(=O)N1 (configuration not stated)	-14	7.1	·	4962	9	12	7
NC1=NC(c2cccc(Cl)c2)N(CCc2ccc(F)cc2)C(N)=N1 (configuration not stated)	-22	1.8	2	3114	4	-7	4
CCOC(=O)NN=Cc1cn(Cc2ccc(F)cc2)c2ccccc12	·	1.9	·	·	-9	-3	-1
O=C1c2ccccc2NC(c2ccc(-c3ccccc3F)o2)N1O (configuration not stated)	-35	7.6	·	4231	12	5	-32
O=C(Nc1ccc(OC(F)F)cc1)c1cc(S(=O)(=O)N2CCOCC2)ccc1F	0	-0.5	-6	6250	1	1	1
Cn1c(=O)c2cc(S(=O)(=O)Nc3cccc(F)c3)ccc2n(C)c1=O	12	9.6	-5	2977	7	11	1
